miR-21 reporter – miR-21 reporter, rising signal; 340,000 tested, under 10 active; HeLa miR-21 FLuc reporter, luciferase, 48 h; Potency, µM (titrated, usually from 38.3 µM), inactives show at the highest dose reporter change, positive = more light; AID 2288; active = well fitted rising curve with a large enough effect; inconclusive = small, poorly fitted or top-dose-only effect; inactive = no such curve, though single readings can be large or run the other way;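 further: % of control where 0% means no effect; miR-21 action dims this reporter so a rising signal means less miR-21 action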
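Luminescence from a firefly luciferase reporter carrying a miR-21 binding site downstream, stably expressed under a CMV promoter in HeLa cells that make miR-21 endogenously, reports miRNA modulation after 48 h compound exposure up to approximately 40uM final.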
GLA inh pH 4.5 – inhibitors of human alpha-galactosidase A at pH 4.5. P06280. purified enzyme, 4-MU-alpha-Gal fluorescence, pH 4.5. activity change, negative = inhibition, % at 105 µM. 230,000 tested, under 10 active. AID 1467; inconclusive = small, poorly fitted or top-dose-only inhibition, or a rising curve; inactive = flat fitted curve, though single readings scatter; no compound was filed as active;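 further: 0% = full activity with enzyme and -100% = basal without enzyme; dose as in the result columns while the protocol names 77 µM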
Rango-impB inh – Rango-importin beta binding inhibition; AID 540263; hit rate 0.031% among 340,000; Q14974; Potency, µM (top dose mostly 92.2 µM), without a hit: at the highest dose inhibition of complex formation; Rango CFP/YFP FRET sensor + importin beta, 45 min; active = rising FRET ratio curve, often small or poorly fitted; inconclusive = mostly compound fluorescence or quenching in the first reads; inactive = flat curves in all reads;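 further: potency means the concentration at half of the fitted maximal effect; 0% = DMSO wells and 100% = buffer wells lacking importin beta; nearly all actives have a fitted effect of over 15% in size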
Target sequence (Q14974 whole entry, looked up): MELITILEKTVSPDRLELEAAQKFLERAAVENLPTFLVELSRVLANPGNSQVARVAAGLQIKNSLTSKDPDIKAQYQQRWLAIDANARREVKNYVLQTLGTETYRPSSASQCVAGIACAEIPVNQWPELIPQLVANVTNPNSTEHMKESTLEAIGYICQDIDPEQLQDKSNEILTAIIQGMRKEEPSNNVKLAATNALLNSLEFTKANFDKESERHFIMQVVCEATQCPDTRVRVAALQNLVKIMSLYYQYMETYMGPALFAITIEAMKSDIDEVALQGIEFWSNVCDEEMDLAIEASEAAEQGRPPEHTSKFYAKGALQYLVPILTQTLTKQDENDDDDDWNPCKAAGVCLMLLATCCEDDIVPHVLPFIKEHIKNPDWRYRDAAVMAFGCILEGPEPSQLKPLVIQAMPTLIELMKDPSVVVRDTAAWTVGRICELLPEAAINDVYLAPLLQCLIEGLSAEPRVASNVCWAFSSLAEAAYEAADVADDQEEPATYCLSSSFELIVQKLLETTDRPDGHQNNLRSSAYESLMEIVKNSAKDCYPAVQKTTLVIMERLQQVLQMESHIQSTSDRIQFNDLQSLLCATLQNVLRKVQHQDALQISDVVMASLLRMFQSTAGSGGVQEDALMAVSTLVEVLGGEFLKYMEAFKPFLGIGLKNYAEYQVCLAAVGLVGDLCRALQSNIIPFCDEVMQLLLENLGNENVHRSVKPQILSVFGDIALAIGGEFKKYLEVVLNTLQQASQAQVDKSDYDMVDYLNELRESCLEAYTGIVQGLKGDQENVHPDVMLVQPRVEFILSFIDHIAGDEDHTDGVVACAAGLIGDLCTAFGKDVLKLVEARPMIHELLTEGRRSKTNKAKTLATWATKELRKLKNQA
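FRET biosensor (snurportin 1 IBB flanked by EYFP and cerulean), 50 nM, with compound 5 min, then 0.125 microM importin beta in PBS, 1 mM DTT, 0.02% Tween-20, 0.1% BSA. CFP/YFP ratio read after 45 min at room temperature; pre-read flags interference.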
Rango release inh – prevents RanGTP from dissociating the Rango-importin beta complex; Potency, µM (highest dose often 46.1 µM), for inactives: at the highest dose activity change, negative = inhibition; hit rate 0.071% among 340,000; Biochemical FRET Rango-importin beta, RanGTP-induced dissociation; O95149+P62826; active means falling FRET ratio curve, often poorly fitted, with flat reads before Ran was added; inconclusive means other falling curves, or compound fluorescence or quenching; inactive means flat or rising ratio curve;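 further: potency means the concentration at half of the fitted maximal effect; % of control where 0% means no effect; nearly all actives have a fitted effect of over 45% in size; -100% = wells without RanGTP and RCC1; the record marks most hits as doubtful in a second field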
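Two FRET readings bracket the reaction: one 5 min after compound meets Rango–importin beta, another 45 min after RanGTP-RCC1 (0.6 uM Ran, 0.2 uM RCC1, 2 mM GTP) is added. Only the second defines inhibition.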
An asterisk follows results filed as active; u = inconclusive; x = not tested or not shown. An excerpt. The share of hits here may be higher or lower than overall.

Rango release inh | miR-21 reporter | mol | Rango-impB inh | GLA inh pH 4.5
-1.8% | -0.5% | COCCCN(C(=O)CC1OC(=O)c2ccccc21)c1c(N)n(Cc2ccccc2)c(=O)[nH]c1=O (stereo not given) | -0.1% | x
1.2% | x | COc1ccc(CC(=O)N/N=C/c2ccc(C)s2)cc1 | 8.6% | x
-17.7% | -12.4% | COc1ccccc1-c1c(C)nn2c(N)c(-c3ccc(Cl)cc3)cnc12 | -1.3% | x
23.6% | 18.9% | S=C(NCC1(c2ccccc2)CCCC1)Nc1ccccc1 | 0.3% | x
22.2% | 0.5% | N#Cc1ccc(OCc2nnc3n2CCCCC3)cc1 | 5.2% | -7.8
8.1% | -2.4% | CCOc1ccc2nc(Cl)c(CN(C(=O)c3cnccn3)C3CCCC3)cc2c1 | -2.6% | 1.5
-6.0% | -37.0% | COc1ccc2sc(NC(C)=O)nc2c1 | -0.3% | -0.9
13.8% | x | CCCc1ccc(C(=O)COC(=O)CN2C(=O)NC3(CCCCC3C)C2=O)cc1 (stereo not given) | 0.9% | x
-6.9% | -32.5% | C=CCn1c(C)cc(C(=O)CSc2nnc(NC(C)C)s2)c1C | -1.8% | -6.5
31.1% | 0.3% | CC(=O)N/C(=C\c1ccccc1)C(=O)OCc1ccc(C)cc1 | -3.5% | x
-3.0% | 23.9% | CCOc1ccccc1C(=O)Nc1ccsc1C(=O)OC | -1.1% | -9.6
12.5% | -45.9% | c1coc(CNc2nc3ccccc3s2)c1 | -1.3% | x
0.8% | -3.8% | CC(C)NC(=S)N1CCCN(c2ncccc2[N+](=O)[O-])CC1 | -0.8% | x
-8.7% | 17.8% | CC(C)(O)C#Cc1ccc(C(=O)N2CCN(c3ccc([N+](=O)[O-])cc3)CC2)cc1 | 2.0% | -6.6
45.4% | x | Cc1cc(C(=O)CN2C(=O)C(=O)N(C3CCCC3)C2=O)c(C)n1CCc1ccccc1 | 1.4% | x
4.7% | 1.3% | CCN(CC)S(=O)(=O)c1ccc(N2CCCC2)c(NC(=O)CC(C)(C)C)c1 | 0.2% | -3.1
8.8% | 0.6% | O=C(O)c1ccc(CNC(=O)c2ccc(Br)o2)cc1 | 0.8% | -0.8
-10.3% | -1.7% | Cc1cccc[n+]1CC(=O)N1c2ccccc2Sc2ccccc21 | -5.5% | -7.2
-14.3% | -3.8% | COC(=O)c1cc(S(=O)(=O)NCC2CCN(CCc3ccc(OC)cc3)CC2)c[nH]1 | 2.3% | x
6.5% | 4.0% | COc1ccc(C(=O)Cn2c(Br)nc3c2c(=O)n(C)c(=O)n3C)cc1 | 2.2% | -6.1
-3.4% | -9.8% | O=C(CSc1cccc(C(F)(F)F)c1)NC(=O)NCc1ccco1 | -0.9% | -2.6
-10.1% | 6.8% | O=C(Nc1ccc(NC(=O)c2ccccc2Cl)nc1)c1ccncc1 | 4.9% | -10.6
-14.6% | x | CCN(c1ccccc1)S(=O)(=O)c1ccc(C(=O)Nc2ccncc2)cc1 | -3.1% | x
5.7% | -8.4% | COCCOc1nc2ccccc2nc1C | -3.0% | 4.1
-14.3% | -4.4% | Cc1cc(=O)[nH]c(SCc2cc(Cl)ccc2OC(F)F)n1 | 3.6% | 1.7
15.3% | 0.5% | CCC(C)NCCOCCOc1ccc(Br)cc1C (stereo not given) | 3.6% | 0.1
-11.4% | -2.0% | O=C(CCN1CCOCC1)c1ccccc1 | 3.6% | 3.2
-0.9% | -2.7% | Cc1cc(F)ccc1S(=O)(=O)N1CCCOC1CNC(=O)C(=O)NCc1cccnc1 (stereo not given) | -4.5% | x
-9.6% | -1.1% | COc1ccc(/C=N/N2CCN(C3c4ccccc4-c4ccccc43)CC2)cc1O | -1.7% | u
25.4% | x | Cc1ccsc1C(=O)OCC(=O)NC1CC1 | -1.9% | x

Structural class, the compounds so far with a Cl atom (four)
Rango release inh | miR-21 reporter | mol | Rango-impB inh | GLA inh pH 4.5
-17.7% | -12.4% | COc1ccccc1-c1c(C)nn2c(N)c(-c3ccc(Cl)cc3)cnc12 | -1.3% | x
8.1% | -2.4% | CCOc1ccc2nc(Cl)c(CN(C(=O)c3cnccn3)C3CCCC3)cc2c1 | -2.6% | 1.5
-10.1% | 6.8% | O=C(Nc1ccc(NC(=O)c2ccccc2Cl)nc1)c1ccncc1 | 4.9% | -10.6
-14.3% | -4.4% | Cc1cc(=O)[nH]c(SCc2cc(Cl)ccc2OC(F)F)n1 | 3.6% | 1.7

(next part)
Rango release inh | miR-21 reporter | mol | Rango-impB inh | GLA inh pH 4.5
-2.0% | 1.7% | O=C(NCc1ccccc1)c1ccc2c(c1)C(=O)N(Cc1cccnc1)C2=O | 0.2% | x
-3.2% | 6.5% | CCNC(=O)c1nc[nH]c1C(=O)NCC | 1.2% | 1.3
9.0% | -30.4% | CC(Sc1nnnn1C)C(=O)Nc1ccc2c(c1)OCCO2 (stereo not given) | -1.5% | 0.5
-2.0% | 1.1% | O=S(=O)(NCC1CCCO1)c1ccc(Cl)cc1 (stereo not given) | 0.2% | x
-4.0% | -1.3% | COc1ccccc1OC(C)C(=O)N(Cc1ccco1)C1CCS(=O)(=O)C1 (stereo not given) | 1.5% | x
11.9% | x | Cc1ccc(/C=N/n2nnnc2N)cc1 | -3.5% | x
-8.7% | -15.5% | O=c1[nH]c(C2CCN(S(=O)(=O)Cc3ccccc3)CC2)nc2c1nnn2Cc1cccc(Cl)c1 | -2.4% | x
-11.4% | -15.0% | COc1ccc(C(C)=O)cc1CSc1ccc2c(c1)OCCO2 | 0.6% | x
-13.6% | -40.5% | c1ccn2c(SCc3ccc4c(c3)OCO4)nnc2c1 | 3.8% | -2.2
-9.0% | x | Cc1cccc(OCc2nnc(SCC(=O)N(c3ccccc3)C3CCS(=O)(=O)C3)o2)c1 (stereo not given) | 0.2% | x
9.2% | -11.8% | Cn1c(N)c(C(=O)c2cc(-c3ccccn3)nc3ccccc23)c(=O)[nH]c1=O | -1.9% | -19.4
6.4% | -1.4% | O=c1[nH][nH]c(C(F)(F)F)c1C=NCc1ccc(Cl)cc1 | -0.4% | 1.6
38.4% | 0.3% | CCOC(=O)C(C(=O)NCCCN1CCOCC1)C1CCCCC1 (stereo not given) | 1.8% | -7.7
-6.0% | -9.2% | O=C(NCCCN1CCCC1)c1ccc2c(c1)N(Cc1ccc(F)cc1)C(=O)c1ccccc1S2=O (stereo not given) | -0.7% | x
0.2% | -0.1% | CCOC(=O)c1cnc(N2CCN(C(=O)OCC)CC2)[nH]c1=O | -0.1% | 10.2
u | -0.5% | O=C1NC(=O)/C(=C/c2ccc(-c3cc(C(=O)O)ccc3Cl)o2)S1 | u | x
-22.5% | 0.1% | CCOn1c(=O)c[n+]([O-])c2ccccc21 | u | 1.9
-16.4% | 15.1% | N#CCC(=O)Nc1ccc(C(=O)OCC(=O)N(C2CCCCC2)C2CCCCC2)cc1 | -2.6% | x
-0.2% | -11.5% | O=C(NCCOc1ccc(Cl)cc1)C1CCCCC1 | 5.2% | 1.0
45.7% | -1.3% | COc1ccccc1CNC(=O)CCCC(=O)n1nc(C)c2ccccc21 | u | x
-4.6% | -4.0% | CCN(CC)C(=O)C1c2ccccc2Oc2ccccc21 | -0.8% | x
21.3% | -11.2% | Cc1nn(-c2ccccc2)c(Oc2ccc(F)cc2)c1/C=N/n1cnnc1 | -0.9% | 4.3
6.8% | x | Cc1ccc(S(=O)(=O)N2[C@@H](c3ccc(Cl)c(Cl)c3)C(C(=O)O)=C[C@H]2CC2CCCC2)cc1 | -0.6% | x
10.2% | 0.5% | Cc1ccc(S(=O)(=O)NC(=NC2CCCCC2)c2ccccc2)cc1 | 6.6% | x
-10.5% | -24.5% | Oc1ccc(Cl)cc1C1=NNC(c2ccc(Cl)cc2)C1 (stereo not given) | 0.3% | 4.3
2.2% | -0.7% | C=CCNC(=O)C12CC3(C)CC(C)(CC(C)(C3)C1)C2 | 3.3% | 5.8
-16.8% | -14.5% | Cc1cc(C)n(-c2ccc(C(=O)Oc3ccc4c(c3)OCO4)cc2)n1 | -0.6% | -11.2
-22.4% | -43.1% | COc1cc(/C=N/NC(=O)CSc2ccccn2)ccc1OC(C)C | -1.5% | -5.4
0.2% | x | COc1ccc(NC(=O)CN(C)C(=O)/C=C/c2ccc(S(=O)(=O)N3CCCCCC3)cc2)cc1 | u | x
17.7% | -1.8% | CCC(Oc1ccccc1F)C(=O)Nc1ccc2c(c1)n(C)c(=O)n2C (stereo not given) | 1.8% | x
-18.5% | -15.6% | COc1cc2c(cc1OC)C(C(=O)Nc1ccc3c(c1)OCCO3)C(c1cccnc1)N(C)C2=O (stereo not given) | 1.2% | -2.7
-0.4% | 4.9% | O=C(Nc1ccc(Cl)cn1)C1C(c2ccccc2)C1(Cl)Cl (stereo not given) | -1.6% | -6.2
-11.0% | -4.1% | CN(C1CCCCC1)S(=O)(=O)c1cccc(C(=O)OCC(=O)NC2CCCc3ccccc32)c1 (stereo not given) | -0.2% | -6.1
-5.8% | -3.9% | COc1cc2c(=O)n(CCCN3CCOCC3)c(=S)[nH]c2c(OC)c1OC | -3.3% | -2.4
3.5% | -44.1% | Cc1ccc(NC(=O)N2CCCCCC2)c(C)c1 | 0.2% | x
-25.2% | -6.8% | CCOC(=O)N1CCN(Cc2cc(=O)oc3ccc(Cl)cc23)CC1 | -3.5% | 6.2
-0.5% | -4.4% | O=C1OCC(Cn2c3ccccc3c3ccccc32)O1 (stereo not given) | 0.2% | 0.5
1.5% | -2.9% | CN(/C(=N/S(=O)(=O)c1cccs1)c1ccccc1)c1ccccc1 | -0.1% | -2.0
-17.6% | x | O=C(O)CNC(=O)C1(N2C(=O)c3ccccc3C2=O)CCCC1 | -0.1% | x
-2.9% | -40.9% | O=C(N/N=C/c1ccc(OC(=O)c2cccs2)cc1)c1ccccn1 | -0.5% | x
25.1% | -17.8% | COC(=O)CCCNC(=O)c1ccc(OC2CCN(CCc3ccccc3)CC2)cc1 | 3.6% | -1.7

Complete entries as entered above. Order of values: Rango release inh	miR-21 reporter	Rango-impB inh	GLA inh pH 4.5
Listed for O=C1OCC(Cn2c3ccccc3c3ccccc32)O1 (stereo not given) : -0.5%	-4.4%	0.2%	0.5
Listed for O=C(N/N=C/c1ccc(OC(=O)c2cccs2)cc1)c1ccccn1 : -2.9%	-40.9%	-0.5%	x

Among those listed so far, these have an aryl thioether with sulfur outside any ring.
Rango release inh | miR-21 reporter | mol | Rango-impB inh | GLA inh pH 4.5
-6.9% | -32.5% | C=CCn1c(C)cc(C(=O)CSc2nnc(NC(C)C)s2)c1C | -1.8% | -6.5
-3.4% | -9.8% | O=C(CSc1cccc(C(F)(F)F)c1)NC(=O)NCc1ccco1 | -0.9% | -2.6
-14.3% | -4.4% | Cc1cc(=O)[nH]c(SCc2cc(Cl)ccc2OC(F)F)n1 | 3.6% | 1.7
9.0% | -30.4% | CC(Sc1nnnn1C)C(=O)Nc1ccc2c(c1)OCCO2 (stereo not given) | -1.5% | 0.5
-11.4% | -15.0% | COc1ccc(C(C)=O)cc1CSc1ccc2c(c1)OCCO2 | 0.6% | x
-13.6% | -40.5% | c1ccn2c(SCc3ccc4c(c3)OCO4)nnc2c1 | 3.8% | -2.2
-9.0% | x | Cc1cccc(OCc2nnc(SCC(=O)N(c3ccccc3)C3CCS(=O)(=O)C3)o2)c1 (stereo not given) | 0.2% | x
-22.4% | -43.1% | COc1cc(/C=N/NC(=O)CSc2ccccn2)ccc1OC(C)C | -1.5% | -5.4

Compound activity from PubChem.
